GIRK2 act = opens human GIRK2 potassium channels | calls only for hits at 25 µM | P48051 | hit rate 0.05% among 63,000 | AID 1259325 | HEK293-GIRK2 thallium flux, Thallos fluorescence;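 active = among the strongest 0.2% of first-round signals and kept after retests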;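 also: first round at about 10 µM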
Target sequence (P48051 whole entry, looked up): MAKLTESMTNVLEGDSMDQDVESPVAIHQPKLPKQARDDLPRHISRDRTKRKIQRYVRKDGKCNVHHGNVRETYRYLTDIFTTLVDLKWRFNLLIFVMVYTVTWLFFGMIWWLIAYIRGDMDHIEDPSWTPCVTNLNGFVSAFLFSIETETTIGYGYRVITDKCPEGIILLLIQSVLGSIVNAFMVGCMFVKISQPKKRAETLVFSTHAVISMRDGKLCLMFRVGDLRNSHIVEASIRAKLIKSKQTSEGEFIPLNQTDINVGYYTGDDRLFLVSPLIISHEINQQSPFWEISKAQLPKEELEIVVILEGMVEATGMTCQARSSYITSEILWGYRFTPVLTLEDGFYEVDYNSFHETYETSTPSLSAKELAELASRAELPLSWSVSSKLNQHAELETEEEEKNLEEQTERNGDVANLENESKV
Calls only; i = inactive.

| GIRK2 act | Compound |
| --- | --- |
| i | CCOCCN1N=C(c2ccc(F)cc2)Cn2c1nc1c2c(=O)n(C)c(=O)n1C |
| i | CCOC(=O)c1ccsc1NC(=S)NC(=O)c1ccccc1 |
| i | CCSc1ccccc1C(=O)Nc1cccc2ccc(-n3ccnc3)nc12 |
| i | CC1(C)Cc2cccc(OCC(=O)Nc3cccc4ccc(-n5ccnc5)nc34)c2O1 |
| i | C=CCn1c(SCc2csc(C)n2)nc2sc(C)c(C)c2c1=O |
| i | CCC(=O)N1N=C(c2ccco2)CC1c1cc2ccc(C)cc2[nH]c1=O (stereo not given) |
| i | O=C(Cc1ccc(Cl)cc1)NCCNc1ccc(-n2cccc2)nn1 |
| i | O=C(c1cccc(Cl)c1)N(Cc1ccoc1)Cc1cccs1 |
| i | CSc1ccccc1C(=O)NCc1nn(C2CCCC2)c(=O)c2ccccc12 |
| i | COc1ccc2c(c1)c(CC(=O)NCCCCl)c(C)n2C(=O)c1ccc(Cl)cc1 |
| i | CS(=O)(=O)c1ccc(-c2nnc(SCCCN3C(=O)c4cccc5cccc(c45)C3=O)o2)cc1 |
| i | O=C(CCn1c(=O)[nH]c2ccccc2c1=O)NCCc1ccccc1Cl |
| i | Cc1nc2ccccc2n1CC1CCN(C(=O)c2cc3ccccc3o2)CC1 |
| i | CCOc1cc(S(=O)(=O)NC2CC(C)(C)NC(C)(C)C2)c(OCC)cc1C |
| i | O=C(CCS(=O)(=O)c1ccccc1)N1CCC2(CC1)OCCCO2 |
| i | CCOc1ccccc1NC(=O)Cn1nc(NC)c(-c2nc(-c3ccc(Cl)cc3)no2)c1N |
| i | O=C1CC2(CCN(C(=O)c3ccccc3)CC2)Oc2ccccc21 |
| i | O=C(Cc1c[nH]c2ccccc12)N1CCN(c2cc(-n3cccn3)ncn2)CC1 |
| i | COc1ccc(-c2noc(-c3ccc(=O)n(CC(=O)NCc4ccccc4)c3)n2)cc1 |
| i | N#Cc1nc(-c2cccc(Cl)c2)oc1N1CCN(C(=O)c2ccccc2)CC1 |
| i | COc1ccc(C(=O)Nc2ccc3c(c2)N(S(=O)(=O)c2ccccc2)CCC3)cc1 |
| i | C=CCn1c(=O)c2c(nc3n(-c4ccccc4OC)c(C)cn23)n(C)c1=O |
| i | N#Cc1nc(-c2ccc(S(=O)(=O)N3CCCCC3)cc2)oc1NCC1CCCO1 (stereo not given) |
| i | NC1=NC(=O)C2(COC(c3ccc([N+](=O)[O-])cc3)OC2)S1 (stereo not given) |
| i | CCOc1ccc(C(=O)Nc2cccc(OC)c2)nn1 |
| i | CCOc1ccc(-n2c(C)cn3c4c(=O)n(C(C)C(C)=O)c(=O)n(C)c4nc23)cc1 (stereo not given) |
| i | O=C(c1cc(-c2ccccc2)n[nH]1)N1CC(c2nc(-c3ncccn3)no2)C1 |
| i | COc1cccc(COc2cn(C)c(C(=O)N3CCN(c4ccccc4F)CC3)cc2=O)c1 |
| i | O=C(NCCC(O)c1ccoc1)c1ccc(Cl)s1 (stereo not given) |
| i | O=C(NCCN1CCN(c2ccccc2F)CC1)C(=O)Nc1ccc2c(c1)OCO2 |
| i | CC(C)NC(=O)Nc1nc2c(s1)CN(C(=O)c1cccn(C)c1=O)CC2 |
| i | CCCCNC(=O)c1ccc(Cn2c(=S)[nH]c3ccc(Br)cc3c2=O)cc1 |
| i | N#Cc1nc(-c2ccc(S(=O)(=O)N3CCOCC3)cc2)oc1NCC1CCCO1 (stereo not given) |
| i | COc1cccc(-c2ccc(=O)n(CCCC(=O)N3CCc4ccccc43)n2)c1 |
| i | COCCn1c(-n2nc(C)cc2C)nc2c1c(=O)n(Cc1ccccc1F)c(=O)n2C |
| i | COc1cccc(-c2csc(-c3nnn(-c4ccc(C)c(F)c4)c3N)n2)c1 |
| i | CC(=O)c1ccc(NC(=O)Cn2cccc(S(=O)(=O)N3CCCCC3)c2=O)cc1 |
| i | COc1ccc2c(=O)c3c(oc2c1)C(=O)N(c1nccs1)C3c1ccc([N+](=O)[O-])cc1 (stereo not given) |
| i | O=C(NC1(c2nc(-c3cnccn3)no2)CCCCC1)c1cc2cc(Cl)ccc2[nH]1 |
| i | COc1ccc(CCNC(=O)c2ccc(-n3nc(C)cc3C)nc2)cc1OC |
| i | CC1CN(c2ccc(Br)cc2)c2nc3c(c(=O)n(CC(N)=O)c(=O)n3C)n2C1 (stereo not given) |
| i | CC(C)(C)N(C(=O)c1ccc(S(=O)(=O)N2CCCC2)cc1)C(=O)N1CCCCC1 |
| i | COc1cccc(/C=C2\SC(=S)N(c3ccc(NC(C)=O)cc3)C2=O)c1OC |
| i | CCOc1ccccc1NC(=O)Cn1nc2cc(-c3nc(C)no3)ccn2c1=O |
| i | CCOC(=O)C1=C(C)N=c2s/c(=C/c3cn(C)nc3C)c(=O)n2C1c1ccc(OC)cc1 (stereo not given) |
| i | O=C(NC(c1ccccc1)c1ccccc1)N(CCc1cccs1)Cc1ccco1 |
| i | CCCCC1CCC(C(=O)NCC2CCS(=O)(=O)C2)CC1 (stereo not given) |
| i | O=C(CCC1NC(=O)c2ccccc2NC1=O)NCc1nc(-c2ccccc2)no1 (stereo not given) |
| i | COc1ccc(F)cc1S(=O)(=O)N1CCC(C(N)=O)CC1 |
| i | Cc1ccccc1-c1cc(C(=O)N2CCC(NC(=O)CC3CCCCC3)CC2)[nH]n1 |

In another format: entries from further up
> COc1ccc(CCNC(=O)c2ccc(-n3nc(C)cc3C)nc2)cc1OC
  GIRK2 act = i

> O=C(NC1(c2nc(-c3cnccn3)no2)CCCCC1)c1cc2cc(Cl)ccc2[nH]1
  GIRK2 act = i

Next results:
| GIRK2 act | Compound |
| --- | --- |
| i | COc1ccc(NC(=O)CSc2cc(C)nc(-c3cnccn3)n2)cc1OC |
| i | CCc1cccc(OCC(O)Cn2c(N(C)Cc3ccccc3)nc3c2c(=O)[nH]c(=O)n3C)c1 (stereo not given) |
| i | O=C(NCC1CCN(C(=O)c2ccncc2)CC1)c1cc(Cl)ccc1Cl |
| i | CS(=O)(=O)N1CCC(C(=O)NCCCOc2cccc3cccnc23)CC1 |
| i | O=C(CN1CCN(c2ccc(F)c(F)c2)C1=O)Nc1cc2ccccc2oc1=O |
| i | CCCCCn1c(=S)[nH]c2cc(C(=O)NCCc3ccccc3)ccc2c1=O |
| i | CN1CCN(C(=O)CCCSc2ccc(NC(=O)c3ccc(F)cc3)nn2)CC1 |
| i | O=C(Cn1nc2ccc(Sc3cccc(F)c3)nn2c1=O)Nc1ccc(Cl)cc1 |
| i | Cc1ccc(CNC(=O)c2snc(-c3ccccn3)c2NC(=O)C2CC2)cc1C |
| i | NC(=O)C1CCN(S(=O)(=O)CCNC(=O)c2ccc(F)cc2)CC1 |
| i | COc1ccc(-c2nc(Cn3nnc(-c4nc(-c5cccc(Cl)c5)no4)c3C)c(C)o2)cc1 |
| i | O=C(c1ccc(C(F)(F)F)cc1)N1CC(c2nc(-c3cccnc3)no2)C1 |
| i | COc1ccccc1N1CCN(CCNC(=O)c2ccc(C(F)(F)F)cc2)CC1 |
| i | O=C(Cc1cccs1)NCCc1nc2c(c(C(F)(F)F)n1)CCCC2 |
| i | C=C(C)[C@H]1Cc2c(ccc3c2O[C@@H]2C(O)Oc4cc(OC)c(OC)cc4[C@@H]2C3=O)O1 (stereo not given in full) |
| i | COCCn1cnc2c(-c3ccccc3)cn(CC(=O)Nc3ccc4c(c3)OCO4)c2c1=O |
| i | CCCCC[C@H](O)/C=C/[C@H]1CC[C@@H](O)[C@@H]1C/C=C\CCCC(=O)O |
| i | COc1ccc(-c2cc3nn(CC(=O)Nc4cccc(C)c4)c(=O)n3c(C)n2)cc1 |
| i | O=C1CCSCC(C(=O)N2CCN(c3ccccc3O)CC2)N1 (stereo not given) |
| i | COc1ccc(N/C=C(\C#N)c2nc(-c3ccc(C)cc3C)cs2)cc1OC |
| i | CC/C(=C(/CC)c1ccc(O)cc1)c1ccc(O)cc1 |
| i | O=C(CSc1nnc2ccc3ccccc3n12)NCc1ccco1 |
| i | CCN1CCc2nc(-c3ccccc3)n(CC(=O)Nc3cc(C)ccc3C)c(=O)c2C1 |
| i | O=C(Nc1ccccc1F)Nc1ccccc1NC(=O)c1ccccc1Cl |
| i | Cc1cccc2c(NC(=O)CSc3nc4ccccc4s3)ccnc12 |

6 compounds drawn at random from those above:
| GIRK2 act | Compound |
| --- | --- |
| i | O=C(CCS(=O)(=O)c1ccccc1)N1CCC2(CC1)OCCCO2 |
| i | CCC(=O)N1N=C(c2ccco2)CC1c1cc2ccc(C)cc2[nH]c1=O (stereo not given) |
| i | COc1ccc(-c2cc3nn(CC(=O)Nc4cccc(C)c4)c(=O)n3c(C)n2)cc1 |
| i | Cc1cccc2c(NC(=O)CSc3nc4ccccc4s3)ccnc12 |
| i | C=C(C)[C@H]1Cc2c(ccc3c2O[C@@H]2C(O)Oc4cc(OC)c(OC)cc4[C@@H]2C3=O)O1 (stereo not given in full) |
| i | CCOc1cc(S(=O)(=O)NC2CC(C)(C)NC(C)(C)C2)c(OCC)cc1C |

Reformatted bar-delimited: 2 of the compounds above.
structure | GIRK2 act
O=C(Nc1ccccc1F)Nc1ccccc1NC(=O)c1ccccc1Cl | i
Cc1cccc2c(NC(=O)CSc3nc4ccccc4s3)ccnc12 | i

Further records.
| GIRK2 act | Compound |
| --- | --- |
| i | COCCn1c(C)cc(C(=O)CSc2nc(C)cc(C)c2C#N)c1C |
| i | Cc1ccc(SC(Cc2ccccc2)C(=O)O)cc1 (stereo not given) |
| i | COc1ccc(S(=O)(=O)NCCC(=O)N2CCCC2)cc1N(C)S(C)(=O)=O |
| i | O=C(c1ccoc1)N1CCC(CNS(=O)(=O)c2ccccc2)CC1 |
| i | Cc1ccc(NC(=O)C(C)Cn2nc(C)cc2C)c(C)c1 (stereo not given) |
| i | COCCCNc1nc2ccccc2nc1NS(=O)(=O)c1cc(Cl)ccc1Cl |
| i | O=c1cccnn1CCNS(=O)(=O)c1cc(Cl)ccc1Cl |
| i | Cc1cc(C)c(NC(=O)C2Nc3cc(C)ccc3S(=O)(=O)N2)c(C)c1 (stereo not given) |
| i | COc1cc(C(=O)Nc2ccc(C)c(N3CCCC3=O)c2)c([N+](=O)[O-])cc1OC |
| i | Cc1c(C(=O)N2CC3(COC(C)(C)OC3)C2)cnn1-c1ccccc1 |
| i | COC(=O)Cn1c(=O)c2c(nc3n(CC(=O)OC)c(C)cn23)n(C)c1=O |
| i | COc1cccc(N2CC(C(=O)Nc3cnoc3)CC2=O)c1 (stereo not given) |
| i | CC(=O)Cn1c(=O)c2c(nc3n2CC(C)CN3c2ccc(Oc3ccccc3)cc2)n(C)c1=O (stereo not given) |
| i | COc1ccc(Br)cc1/C=C1\Oc2cc(OC(C)C(=O)O)ccc2C1=O (stereo not given) |
| i | Cc1ccc(NS(=O)(=O)c2n[nH]c(C)c2C(=O)NCc2cccc(C(F)(F)F)c2)cc1 |
| i | O=C(NCc1ccco1)NC1CCN(c2ccc(-c3ccccc3Cl)nn2)CC1 |
| i | O=C(CCc1ccccc1)NCCNc1cc(Nc2ccccn2)ncn1 |
| i | COc1cccc(OCC(=O)Nc2cc(C)nn2-c2nc3c(cnn3-c3ccccc3)c(=O)[nH]2)c1 |
| i | COC(=O)c1ccc(NC(=O)C(=O)NCCCN2CCN(c3ccccc3)CC2)cc1 |
| i | CCOc1ccc(C(=O)NCCn2ncccc2=O)cc1OCC |
| i | Cc1ccc(Sc2nccn3c(=O)n(CC(=O)Nc4c(C)cc(C)cc4C)nc23)c(C)c1 |
| i | CCOC(=O)Cc1csc(NC(=O)Cn2cccn2)n1 |
| i | CCOc1ccc(NS(=O)(=O)c2n[nH]c(C)c2C(=O)Nc2cccc(C(C)C)c2)cc1 |
| i | O=C(CN1CC(c2nc(C3CC3)no2)C1)OCc1ccccc1 |
| i | Cc1ccc(C(O)CNC(=O)C2CCN(S(C)(=O)=O)CC2)o1 (stereo not given) |
| i | COc1ccccc1-c1csc(-c2nnn(-c3cc(Cl)ccc3OC)c2N)n1 |
| i | COc1ccc(CNC(=O)/C(C#N)=C2\N=C(NC(=O)c3ccccc3)c3ccccc32)cc1 |
| i | Cc1ccc(CSc2nc(CC(=O)N3CCn4c3nc3ccccc34)cs2)cc1 |
| i | COC(=O)c1ccc(Oc2coc3cc(OCC(=O)c4ccccc4)ccc3c2=O)cc1 |
| i | Cc1c(Cl)ccc2sc(NNC(=O)CS(=O)(=O)c3ccccc3)nc12 |
| i | CCc1ccc(S(=O)(=O)N2CCN(c3ccc(C)nn3)CC2)cc1 |
| i | O=S(=O)(NCC1CCN(S(=O)(=O)c2cccnc2)CC1)c1ccc(Cl)s1 |
| i | C=C1C(=O)O[C@@H]2C=C(C)CC3C=C(C[C@H](OC(=O)/C(C)=C\C)[C@@H]12)C(=O)O3 (stereo not given in full) |
| i | Cc1nc(NC(=O)COc2ccccc2)sc1Cc1ccccc1 |
| i | O=C(NCc1ccc(F)cc1)c1ccc2c(=O)nc3c(-c4ccccc4)n[nH]n3c2c1 |
| i | Cc1cn2c3c(=O)[nH]c(=O)n(C)c3nc2n1CCN1CCC(C(N)=O)CC1 |
| i | COC(=O)c1sccc1S(=O)(=O)N(CC(=O)NCc1ccc(C)cc1)c1ccc(C)c(C)c1 |
| i | Cc1nc2cc(NC(=O)C3(c4cccs4)CCCC3)ccc2s1 |
| i | COc1ccc(CN2COc3ccc4c(c3C2)O/C(=C\c2cccnc2)C4=O)cc1 |
| i | Cc1onc(-c2ccccc2Cl)c1C(=O)Nc1ccc(-n2nnn(C)c2=O)cc1 |
| i | O=C(Nc1nc2c(s1)CN(S(=O)(=O)c1ccc(OC(F)(F)F)cc1)CC2)C1CC1 |
| i | COc1ccc(NC(=O)c2sccc2S(=O)(=O)N2CCN(c3ccccc3)CC2)cc1OC |
| i | O=C(c1cccs1)N(CCCn1ccnc1)c1nc2ccc(Br)cc2s1 |
| i | CNC(=O)Cc1csc(NC(=O)c2csc(Nc3cccc(C)n3)n2)n1 |
| i | O=C(c1cnn2c(-c3ccccc3F)ccnc12)N1CCc2ccccc2C1 |
| i | COCCNC(=O)Cn1ncn2nc(-c3ccccc3)cc2c1=O |
| i | COc1cccc(S(=O)(=O)Nc2ccc(C(=O)Nc3ccc(Br)cc3F)cc2)c1 |
| i | O=C(CCSc1ccccc1)N1CCC(Oc2ncccc2Cl)CC1 |
| i | COC(=O)N1CCc2ccccc2C1C(=O)NCc1cccs1 (stereo not given) |
| i | CCCCC(CC)CNC(=O)CCn1c(=O)[nH]c2ccccc2c1=O (stereo not given) |

Some of the compounds tested (hit frequency here may not be typical).
